# Screening data as filed in PubChem.
# CapD inh: inhibitors of Bacillus anthracis CapD enzyme. purified CapD enzyme, fluorescence intensity read-out; active compounds read low; some hits fall short of the stated cut. z-score (no concentration beside the values). 140,000 tested, 0.23% active;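 active = z-score under -4 in either of two replicates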;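 also: stock transfer was 100 nL into about 40 µL; score is relative to mean and spread of the plate; one replicate is shown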
# AID504770: growth inhibitors of E. coli YBA685 in a screen for V. cholerae RctB (chromosome II replication) inhibitors | E. coli YBA685 rctB-dependent plasmid, OD600 growth, 3 h; active compounds read low | z-score (no concentration beside the values) | 130,000 tested, 0.27% active | AID 504770;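 active = z-score under -2 on both plates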;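 also: wells of about 30 µL received 100 nL stock; score is relative to mean and SD of the test wells; the first replicate is given; strong numbers were not always called active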
# * hit, by the source's call; i = inactive; / = no result given.
mol | CapD inh | AID504770
CN1C(=O)CN=C(c2ccccc2F)c2cc([N+](=O)[O-])ccc21 | 0.315 | /
CCCCN1C(=O)Cc2c1nc(N)c1c(N)nc(N(CCC)CCC)c(C#N)c21 | / | -0.05
O=C(NCCCn1ccnc1)c1noc2c1CCCC2 | -0.51 | -1.25
CN1CCN(c2ccccc2NC(=O)Cc2cn(C)c3ccccc23)CC1 | -0.18 | -0.35
CCCN1C(=O)c2ccccc2NC1c1ccc(OC)c(COc2ccccc2F)c1 (stereo not drawn) | 52.4 | /
O=C(Cn1c(=O)n(CC2CS2)c2ccccc21)c1ccccc1 (stereo not drawn) | -0.52 | 1.95
CCOC(=O)c1cnc2[nH]c3ccccc3n2c1=O | / | -1.1
CSc1ccccc1NC(=O)CN1CC(C)OC(C)C1 (stereo not drawn) | / | 1.85
Cc1cc(C)nc(OC(Cc2ccncc2)c2ccccc2)n1 (stereo not drawn) | -0.32 | /
COc1ccc(CNCCNC(=O)c2ccncc2)c(OC)c1OC | / | 1.35
CCn1c(SCC(=O)N(C2CCCCC2)C2CCCCC2)nnc1-c1cc2cccc(OC)c2o1 | 1.15 | -1.05
O=C(Oc1cccc(NC2=NS(=O)(=O)c3ccccc32)c1)c1cccc([N+](=O)[O-])c1 | 0.325 | /
COc1cc(C2C3=C(CC(C)(C)CC3=O)OC3=C2C(=O)CC(C)(C)C3)ccc1Oc1nc2c(c(=O)n(C)c(=O)n2C)n1C | -0.545 | /
COC(=O)c1ccc(NC(=O)C(C)Sc2nc3c(c(=O)[nH]2)CCCC3)cc1 (stereo not drawn) | / | -0.6
Clc1ccc(-n2ncnc2-c2ccc3c(c2)OCO3)cc1 | -0.12 | 0.65
COc1ccc(OC)c(C2C(C#N)=C(N)Oc3n[nH]c(-c4ccc([N+](=O)[O-])cc4)c32)c1 (stereo not drawn) | -0.78 | /
CCOC(=O)CNc1ccc(OC(F)(F)F)cc1 | -0.355 | /
CCOC(=O)C1CCC(C(=O)OCC)N1C(=O)Nc1ccc(Cl)cc1 (stereo not drawn) | -1.07 | 1.3
O=C(CSc1nnc(-c2cccs2)n1-c1ccccc1)NCC1COc2ccccc2O1 (stereo not drawn) | / | -0.15
CC(=O)N1CCN(C2=NC(=O)/C(=C\c3ccc(-c4ccc(Cl)c(Cl)c4)o3)S2)CC1 | / | 1.45
CCOC(=O)c1ccccc1NC(=O)c1sc2ncnc(N3CCCCC3)c2c1C | 3.45 | /
CC1(C)CC(=O)C2=C(C1)OC1=C(C(=O)CC(C)(C)C1)C2c1ccc(OCc2ccccc2)cc1 | 0.24 | /
COc1ccc(S(=O)(=O)N2CCCN(c3ncc(C(F)(F)F)cc3Cl)CC2)cc1 | 0.555 | /
N#C/C(=C(/O)C1CC1)c1nc2ccccc2s1 | -0.96 | -0.95
CN(C)Cc1nc2ccccc2c(=O)n1Cc1nc(C(C)(C)C)cs1 | / | 2
CCn1cc(CCC(=O)O)c2ccccc21 | 2.12 | 0.15
COC(=O)C1(C)NC2(CCCCC2)Cc2ccccc21 (stereo not drawn) | 0.325 | -1.05
Cc1cc(=O)[nH]c(NC(=O)C(C)(C)C)n1 | 0.68 | 0.35
NC(=S)N/N=C/c1ccc(N2CCOCC2)s1 | / | 0.25
Cc1ccc(C(=O)Nc2ccc3c(c2)OCO3)cc1 | 0.805 | 0.65

# Profiles as entered above. Order of values: CapD inh	AID504770
# Results for CCOC(=O)C1CCC(C(=O)OCC)N1C(=O)Nc1ccc(Cl)cc1 (stereo not drawn) → -1.07	1.3
# Results for CN(C)Cc1nc2ccccc2c(=O)n1Cc1nc(C(C)(C)C)cs1 → /	2
# Results for CCOC(=O)c1ccccc1NC(=O)c1sc2ncnc(N3CCCCC3)c2c1C → 3.45	/
# Results for CCn1cc(CCC(=O)O)c2ccccc21 → 2.12	0.15
# Results for CC1(C)CC(=O)C2=C(C1)OC1=C(C(=O)CC(C)(C)C1)C2c1ccc(OCc2ccccc2)cc1 → 0.24	/

# (listing goes on)
mol | CapD inh | AID504770
CN(C)/C=C/c1ccc([N+](=O)[O-])cc1[N+](=O)[O-] | -1.28 | /
O=C(O)c1ccc(C2NCc3ccccc3-n3cccc32)cc1 (stereo not drawn) | -0.07 | -0.3
Cc1cc(C)nc(Oc2ccccc2-c2ccc3cccnc3n2)n1 | -0.42 | /
CCOc1cc2c3c(c1)C1(Nc4ccccc4CO1)C(=O)N3C(C)(C)CC2C (stereo not drawn) | 0.285 | 0.1
CSc1nc(-c2cccnc2)nc(-c2ccccc2)c1C#N | 0.43 | /
O=[N+]([O-])c1ccccc1N1CCOCC1 | -0.62 | /
CCCCCCc1ccc(C(=O)NNC(=O)C(C)n2nnc(-c3cc(C(F)(F)F)cc(C(F)(F)F)c3)n2)cc1 (stereo not drawn) | 0.455 | /
Cc1cccc2c(=O)c(N)c[nH]c12 | / | -0.85
N#Cc1c(-c2ccccc2)c(-c2ccccc2)nn(CC(=O)NN)c1=O | 0.34 | 0.05
CNC(=O)CN(C1CCCCC1)S(=O)(=O)c1ccc(C)cc1 | / | -0.6
O=S(=O)(Cc1noc(CSc2ccc(Cl)cc2)n1)c1ccccn1 | -0.205 | 0
Cn1/c(=N/N=C2\CC3CC=CC23)sc2ccccc21 (stereo not drawn) | / | 0.05
CCOC(=O)C1(c2ccccc2)CCN(C(=O)c2ccccc2O)CC1 | 0.3 | 0.05
Nc1c(C(=O)NCC2CCCO2)c2nc3ccccc3nc2n1/N=C/c1ccccn1 (stereo not drawn) | / | 0
Cc1ccc(OCc2nn(C)c3ccccc23)cc1 | -0.205 | 0.15
COc1ccc(Br)cc1C1C(N2C(=O)c3ccc([N+](=O)[O-])cc3C2=O)C(=O)N1c1ccc(C)c(F)c1 (stereo not drawn) | -0.42 | /
Cc1cc(C)c2ccc(NN)nc2c1O | -0.03 | -0.1
O=C(Cc1ccc2c(c1)OCCO2)N/N=C/c1ccc[nH]1 | / | -0.3
O=C1c2cccc3cccc(c23)C(=O)N1CC1CCN(CC(O)COCc2ccc3c(c2)OCO3)CC1 (stereo not drawn) | 75.6 | /
COc1cccc(C(=O)COc2nc(-c3cccs3)cc(-c3ccco3)c2C#N)c1 | 26.3 | 1.7
CSc1nsc(SC)c1C(=O)N1CCSCC1 | -0.275 | -0.35
CC(C)[C@H](NC(=O)c1ccccc1)C(=O)N1CCc2ccccc21 | / | 0.7
Cc1ccc(N2C3CCCCCN3CC2(O)c2ccc(Cl)cc2)cc1 (stereo not drawn) | / | -0.1
c1cc(CN2CCCCCCC2)cs1 | 0.36 | -0.25
Cc1ccc(/C(C#N)=C2C=C(Br)/C(=N/O)C=C\2Cl)cc1 | -0.655 | /
Cc1ccc2c(c1)c1c3n2CCN(C(N)=O)C3CCC1 (stereo not drawn) | 7.29 | 2
CCOC(=O)Cc1nn(Cc2ccccc2)c(=O)c2ccccc12 | / | -0.05
O=C(O)c1cccnc1SCC(=O)N1c2ccccc2CCc2ccccc21 | 0.73 | 0.6
O=C(CSc1ncnc2c1sc1ccccc12)NC1CCCCC1 | 2.16 | -0.95
Cc1ccc(C(O)COC2=NCNc3cc(Cl)ccc32)cc1 (stereo not drawn) | 103 | 1.8

# Part of the list above in order of count of non-hydrogen atoms, highest first.
mol | CapD inh | AID504770
O=C1c2cccc3cccc(c23)C(=O)N1CC1CCN(CC(O)COCc2ccc3c(c2)OCO3)CC1 (stereo not drawn) | 75.6 | /
CC(C)[C@H](NC(=O)c1ccccc1)C(=O)N1CCc2ccccc21 | / | 0.7
CSc1nsc(SC)c1C(=O)N1CCSCC1 | -0.275 | -0.35

# Remaining list, next part
mol | CapD inh | AID504770
COC(=O)C(C)N(c1ccc(C)cc1)S(C)(=O)=O (stereo not drawn) | 0.18 | 0.85
Nc1nc2n(n1)C(=O)CC(c1ccccc1)N2 (stereo not drawn) | / | 1.65
Cc1ccccc1-c1nc(CSc2nc3c(c(=O)[nH]2)CCC3)c(C)o1 | 0.515 | 0.05
Cc1c(Cl)c(C)c(C2=NON3N(C(=O)C45CC6CC(CC(C6)C4)C5)c4ccccc4N23)c(C)c1Cl | -0.335 | /
O=C(Cn1nc(-c2ccco2)ccc1=O)NCCc1ccccc1 | / | -0.8
CC(C(=O)O)n1cnc2ccccc21 (stereo not drawn) | -0.34 | -0.9
COc1ccc(C(=O)N2CCOC23CCN(c2ccc([N+](=O)[O-])cc2)CC3)cc1 | -0.43 | /
CCOC(=O)NNC(=S)Nc1ccccc1Cl | 0.155 | /
CC(OC(=O)CCc1c[nH]c2ccccc12)C(=O)c1ccccc1 (stereo not drawn) | -0.345 | -0.65
CCS(=O)(=O)c1ccc2oc(=O)c(/C=C(\O)c3ccco3)nc2c1 | -1.52 | -0.3
Cc1nnc(SCC(=O)Nc2sc3c(c2C(N)=O)CCC3)n(N)c1=O | / | 2.15
Cc1noc(/C=C/N(C)C)c1S(=O)(=O)NCCN1CCC(Cc2ccccc2)CC1 | -2.55 | -0.45
O=C(COC(=O)CCC1CCCC1)NC1CCCCCC1 | / | -0.55
N#CCC(=O)NCc1ccccn1 | -2.11 | 2.1
CSc1cccc(NC(=O)c2cnccn2)c1 | -1.08 | 0.15

# The closing 3 entries of the section before come first, to join the parts:
mol | CapD inh | AID504770
O=C(COC(=O)CCC1CCCC1)NC1CCCCCC1 | / | -0.55
N#CCC(=O)NCc1ccccn1 | -2.11 | 2.1
CSc1cccc(NC(=O)c2cnccn2)c1 | -1.08 | 0.15
COc1ccc(CCN2C(=O)CCC(C(=O)O)C2c2cc(OC)c(OC)c(OC)c2)cc1OC (stereo not drawn) | 1.5 | /
Cc1cccc(N(C)S(=O)(=O)c2cc(Br)cnc2N)c1 | 0.905 | -0.2
CNC(=O)c1cccc(Oc2cccc(Cl)n2)c1 | 0.085 | -0.65
C/C(N)=C(/C#N)C(=O)CSc1ccc2c(c1)OCCO2 | / | 0.8
Fc1ccc(NC(=S)N2CCCCC2)cc1 | 0.61 | -0.1
CCc1ccc(C(=O)NCc2cccs2)cc1 | / | -0.5
O=C(CSc1ccc(Br)cc1)N1CCN(C(=O)c2ccco2)CC1 | -0.435 | 1.4
O=C(CSc1cccc[n+]1[O-])NC(=O)NCc1ccccc1 | / | -0.55
c1cncc(-c2ncc(-c3cnccn3)c(-c3ccncc3)n2)c1 | -0.75 | /
O=[N+]([O-])c1cc(Cl)ccc1N1CCN(S(=O)(=O)c2cccc3nsnc23)CC1 | -0.475 | /
S=c1[nH]nc(CCCOc2ccc(Cl)cc2Cl)o1 | / | -0.7
O=CN1CCN(c2nc(-c3ccccc3)cs2)CC1 | 0.07 | 1.05
O=C(c1cccs1)N1N=C(c2cccs2)CC1c1ccc(F)cc1 (stereo not drawn) | 2 | /
O=C(O)C1=C2C(=O)Nc3cccc(c32)C2(C1)C(=O)Nc1ccccc12 (stereo not drawn) | -1.33 | /
NC(=O)c1cc(-c2ccccc2)nc2ccc(Br)cc12 | 0.815 | 1.55
O=C(COC(=O)Cn1cnc2ccccc2c1=O)NCc1ccccc1Cl | / | 0.2
CC1=C(C(=O)OCc2ccccc2)C(c2ccc(Cl)cc2)C(C#N)=C(SCC(N)=O)N1 (stereo not drawn) | 0.475 | /
CC(C)Nc1cc(Br)c2noc3c2c1C(=O)c1ccccc1-3 | 2.58 | -0.6
O=C(Oc1ccc2c(=O)ccoc2c1)c1ccc(Cl)cc1Cl | -0.255 | 1.3
N#CC1=C(N)C(C#N)(C#N)C(C2C=CCCC2)C2CCCC=C12 (stereo not drawn) | 19.2 | -0.35
O=C(C1CC(c2ccc(F)cc2)=NO1)N1CCCC1 (stereo not drawn) | -0.7 | -0.65
CCN(CC)c1ccc(NC(=O)COC(=O)Cc2ccc(Cl)cc2)cc1 | -0.165 | 1.05
O=C(c1ccccc1)c1cc(Br)ccc1NC(=O)C1CC1 | i | 0.1
O=C(N/N=C/c1ccccc1O)C1(O)c2ccccc2-c2ccccc21 | 0.365 | -0.1
O=C(NCc1ccc2c(c1)OCO2)c1ccc(CS(=O)(=O)c2ccc(Br)cc2)o1 | -0.295 | 1.8
O=C(NC1CCCCC1)c1noc2c1CCCC2 | 0.315 | 1.05
CN1CCN(C(=O)/C(=C\c2cccnc2)NC(=O)c2ccco2)CC1 | -0.705 | /
CC(=O)Oc1ccccc1C(=O)Nc1ccc(OC(F)F)cc1 | 0.835 | 0.6
Cc1ccc(C)c(-c2cc(C)ncc2C)c1 | -0.45 | 2.8
CCOC(=O)N/N=C/c1ccccc1O | 1.05 | /
CN(Cc1ccccc1)S(=O)(=O)c1ccc(NC(=O)c2nc(S(C)(=O)=O)ncc2Cl)cc1 | 0.275 | 0.5
Cc1cc(C)nc(N=Nc2cc(C(C)(C)C)c(O)c(C(C)(C)C)c2)n1 | 0.3 | 0.35
COC(=O)c1cnn(-c2ccc(Cl)cc2)c1C=Nc1ccc(C)cc1 | 0.255 | -0.25
O=C1/C(=C/C=C/c2ccco2)SC(=S)N1C1CCCCC1 | / | -0.35
COC(=O)N1N=C(C2CCCCC2)CC1(O)C(F)(F)F (stereo not drawn) | 0.105 | 0.65
Cc1c(CN2CCCCC2C)c(=O)n(-c2ccccc2)n1C (stereo not drawn) | 0.01 | /
CCCC(=O)NCCc1cn2ccc(C)cc2n1 | / | -0.15
O=C(N(c1ccccc1)C1C=CS(=O)(=O)C1)C12CC3CC(CC(C3)C1)C2 (stereo not drawn) | 0.19 | -0.4
COc1ccc(OCC(=O)NCCSc2ccccn2)cc1 | -0.535 | -0.75
CC(NC(=O)c1cccs1)C(c1cccs1)N1CCOCC1 (stereo not drawn) | -1.38 | -0.85
CCc1nn(C)c2c(=O)c(=O)c2n(C)[nH]1 | -0.485 | -0.4
CCn1c(SCc2cc(=O)n3ccsc3n2)nnc1-c1cccs1 | / | 0.15
CC(C)CCSc1nc(N)c2c3c(sc2n1)CCCC3C (stereo not drawn) | -0.315 | 0.1
Cc1nc(-c2ccccn2)nc(N2CCN(c3ncnc4scc(-c5ccccc5)c34)CC2)c1Cl | 0.265 | /
